Sa growth 42C: S. aureus growth inhibition; relative growth, % (concentration not given with the values); AID 720641; S. aureus RN4220 growth, OD600, 20 h, 42 °C; hits give low values; actives 0.53% (n = 170,000);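 active = growth at 42 °C up to 50% and 20 or more points under that at 30 °C, or under 10% at both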;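 also: 300 nL library stock went into each well; scaled to the means of positive and negative controls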
HCMV UL50-53 inh: cytomegalovirus nuclear egress complex inhibition; HTRF UL50-UL53 interaction, normalized percent inhibition; inhibition, % (no concentration beside the values); actives 0.15% (n = 190,000); AID 1918969;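 active = both replicates at 50% or more, plus weaker picks with an unusually low signal ratio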;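 also: stock transfer was 100 nL into about 20 µL; 0% = negative control wells and 100% = wells with untagged competitor protein; inactives centre near -12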
GIV-Gai inh: inhibitors of GIV GBA-motif binding to rat Galpha-i3; percent of control (FP), % (concentration not given with the values); P08753; actives 0.42% (n = 210,000); Galpha-i3/FITC-GIV peptide fluorescence polarization, 90 min; hits give low values; scaled: aluminum fluoride 0%, vehicle 100%;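 active = replicate mean at 85% of control or lower, very high polarization wells dropped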;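 also: wells of about 15 µL received 100 nL stock; the first replicate is given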
Target sequence (P08753 whole entry, looked up): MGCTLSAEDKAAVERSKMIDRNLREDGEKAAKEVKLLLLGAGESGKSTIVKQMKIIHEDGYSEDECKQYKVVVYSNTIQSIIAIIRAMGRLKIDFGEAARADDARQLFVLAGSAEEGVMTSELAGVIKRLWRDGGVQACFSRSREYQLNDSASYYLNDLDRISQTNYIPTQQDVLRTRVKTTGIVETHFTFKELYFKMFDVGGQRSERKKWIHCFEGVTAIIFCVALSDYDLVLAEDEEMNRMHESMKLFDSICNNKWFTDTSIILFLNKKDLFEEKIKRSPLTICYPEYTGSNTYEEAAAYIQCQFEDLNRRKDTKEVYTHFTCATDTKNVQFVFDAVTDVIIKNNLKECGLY
Sa growth 42C second temp: recorded beside Sa growth 42C, whose call it bears; relative growth, %; measured here: growth at 30 °C;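 optical density after 20 h as mean of two plates; 100% = untreated growth and lower means inhibition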
An asterisk follows results filed as active; . = no result given; & = joins results of further samples. Hits appear at their usual frequency; overall some 0.79% were active at least once.

SMILES	Sa growth 42C	Sa growth 42C second temp	HCMV UL50-53 inh	GIV-Gai inh
COc1ccc(C(=O)NCC(c2ccc3c(c2)OCO3)N2CCOCC2)cc1OC (stereo unspecified)	110	84	.	96
CC(C)Oc1ccc(C2CC(=O)Nc3c2c(=O)n(C)c(=O)n3C)cc1 (stereo unspecified)	.	.	-16	100
O=S(=O)(Nc1ccccn1)c1ccc(C(F)(F)F)cc1Cl	101	92	2	104
Cc1nn(-c2nc(-c3ccc(F)cc3)cc(C(F)(F)F)n2)c(C)c1Cl	94	73	0	105
O=C(Nc1ccc2c(c1)OCCO2)Oc1ccccc1	101	90	-11	.
O=C(NCCc1ccccc1)c1cnc2ccccn2c1=O	100	86	-66	.
CCNc1nc(N)nc(Oc2ccc(OCC(=O)OC)nn2)n1	84	96	-1	104
CC1CCN(C(=O)C(C)Sc2nnc(Nc3ccccc3F)s2)CC1 (stereo unspecified)	107	88	-22	.
CCOC(=O)c1cnc(SC(CC)C(=O)N2CCOc3ccc(C)cc32)nc1N (stereo unspecified)	.	.	6	112
Cc1ccc(CCNC(=O)c2ccc3c(c2)c(C)c(C)n3Cc2ccccc2)cc1	124	109	.	117
CCN(C(=O)C(C)Sc1ccc(S(=O)(=O)N2CCOCC2)cn1)c1ccccc1 (stereo unspecified)	98	84	-10	.
Cn1c2ccccc2c2cnn(CC(=O)O)c(=O)c21	108	88	.	101
CNC(=O)/C(C#N)=C1\SC(CCO)C(=O)N1c1ccccc1 (stereo unspecified)	90	85	-25	107
CCC(C)Nc1nc(SCC(=O)OC)nc(N(C)C)n1 (stereo unspecified)	99	88	-8	105
O=C(Nc1ccccc1)c1cnc[nH]1	97&89	82&99	-23	93&100
Cc1ccc(-c2nc(C(=O)Nc3cccc(C#N)c3)c3n2CCCCC3)cc1	100	105	.	101
CCCCn1c(=O)c2sccc2n2c(CCC(=O)NC3CC3)nnc12	.	.	-6	101
Cc1ccc(C)c(NC(=O)Cn2nnc(C(=O)NCCc3ccccc3)c2N)c1	80	74	.	98
Cc1n[nH]c(=O)c2ccccc12	87&91	91&81	-9&-24	101
CC(C)C(NC(=O)C1CCCCC1)C(=O)Nc1ccncc1 (stereo unspecified)	93	83	-25	94
Cc1ccc(N2C(=O)NC(=O)/C(=C\c3ccc(OCC(=O)O)c(Br)c3)C2=O)cc1	.	.	-20	95
Cn1c(=O)n(-c2ccc(F)cc2)c2nc(-c3ccc(F)c(F)c3)nc(C(N)=O)c21	.	.	0	112
S=C(c1cccc(Oc2ccccc2)c1)N1CCOCC1	121	88	2	101
CC(=O)NC(N1CCCC1=O)(C(F)(F)F)C(F)(F)F	101	97	-7	.
COc1ccc(N(CC(=O)Nc2cccc(Cl)c2)S(=O)(=O)c2c(C)[nH]c(=O)[nH]c2=O)cc1	109	83	-8	103
(list continues)
SMILES	Sa growth 42C	Sa growth 42C second temp	HCMV UL50-53 inh	GIV-Gai inh
NNc1nnc(-c2ccccc2)c(-c2ccccc2)n1	31	33	-42	108
COC(=O)c1ccc2c(c1)N(CC(=O)Nc1ccc(C)c(C)c1)C(=O)c1ccccc1S2	77	84	.	101
CCOC(=O)NN=C1CN(S(=O)(=O)c2ccc(C)cc2)C1	83	82	-27	105
COc1ccc(-c2c(C(F)(F)F)[nH]n3c(=O)cc(C(C)(C)C)nc23)cc1	82	84	-18	102
O=C(NCC(=O)N1CCN(S(=O)(=O)/C=C/c2ccccc2)CC1)c1ccc(Br)o1	105	88	-16	.
Cc1cc(F)ccc1NS(=O)(=O)c1cc(Br)cnc1N	72	61	.	103
COc1cc(Cl)c(C)cc1NC(=O)CCn1cnc2onc(-c3ccc(F)cc3)c2c1=O	94	98	.	106
CC(C)(C)OC(=O)N1CCCN(C(=O)c2cccnc2Oc2ccc(Cl)cc2)CC1	85	90	-14	101
CCc1ccccc1NC(=O)c1cc(C2CC2)on1	108	84	-5	100
O=C1/C(=C/c2ccc(O)cc2)SC(=S)N1CC1CCCO1 (stereo unspecified)	110	52	.	-24*
COc1ccc(Cn2nc(C)c(N)c2C)cc1OC	103	80	-19	102
Fc1ccccc1-c1nnc(-c2ccccc2OC(F)(F)F)o1	110	67	4	101
O=C(CCCN1C(=O)C2C3C=CC(C3)C2C1=O)N1CCN(c2ccccc2)CC1 (stereo unspecified)	86	88	3	97
COC(=O)c1cc(NC(=O)CSc2ncnc3sc4c(c23)CCC4)cc(C(=O)OC)c1	.	.	-8	106
O=S(=O)(c1ccc(-c2ccno2)s1)N1CCN(c2ccncc2)CC1	96	95	-22	103
Cc1c(-c2ccc(Cl)cc2)c(=O)oc2c(CN3CCN(C)CC3)c(O)ccc12	96	100	.	112
COc1ccc(NC(=O)CSc2nc3c(c(=O)[nH]2)CCC3)cc1	110	87	-16	103
O=C1Nc2ccc(Cl)cc2C1Cc1ccc(OC2CCCC2)cc1 (stereo unspecified)	.	.	-11	105
CCc1nc(-c2cc(S(=O)(=O)N3CCN(c4ccc(F)cc4)CC3)ccc2OC)no1	100	91	10	105
Cc1ccc(S(=O)(=O)Nc2ccc(NC(=O)c3sc4cc(C)ccc4c3Cl)cc2)cc1	.	.	4	105
O=C(CCC1N=C2c3ccccc3N=C(SCc3ccccc3Cl)N2C1=O)N1CCN(c2ccccc2)CC1 (stereo unspecified)	114	64	-11	105
O=C1COc2cc(S(=O)(=O)N3CCC(C(=O)N4CCC(N5CCCCC5)CC4)CC3)c(Cl)cc2N1	.	.	-11	103
NC(=O)COC(=O)c1ccc(Cl)c(N)c1	89	96	16	.
O=C1NCCN1CCNS(=O)(=O)c1ccc2c(c1)CCO2	94	94	-8	107
CCOC(=O)c1c(SC)n(-c2ccccc2)c(=S)n(-c2ccccc2)c1=O	100	87	0	106

For reference, part of the list above:
SMILES	Sa growth 42C	Sa growth 42C second temp	HCMV UL50-53 inh	GIV-Gai inh
COc1ccc(C(=O)NCC(c2ccc3c(c2)OCO3)N2CCOCC2)cc1OC (stereo unspecified)	110	84	.	96
CC(C)Oc1ccc(C2CC(=O)Nc3c2c(=O)n(C)c(=O)n3C)cc1 (stereo unspecified)	.	.	-16	100
O=S(=O)(Nc1ccccn1)c1ccc(C(F)(F)F)cc1Cl	101	92	2	104

Continuation:
SMILES	Sa growth 42C	Sa growth 42C second temp	HCMV UL50-53 inh	GIV-Gai inh
CCOCCOC(=O)c1ccc2c(c1)N(Cc1ccccc1F)C(=O)c1ccccc1S2	.	.	-7	103
O=C1CC(C(=O)N2CCN(c3ccccc3)CC2)CN1Cc1ccco1 (stereo unspecified)	77	109	-6	.
Cc1ccc(-n2c(SCc3cc(=O)n4ccccc4n3)nc3n[nH]c(C)c3c2=N)cc1Cl	96	79	-28	102
Cc1cc(OC(=O)c2ccc(Br)cc2)no1	113	99	7	.
Cn1cc(CCC(=O)NCc2ccc(Cl)cc2)c2ccccc21	86	82	.	109
CCOC(=O)N1CCC(NC(=O)c2cc(S(=O)(=O)N(CC)CC)ccc2F)CC1	95	90	.	99
Clc1ccc2nc(Cl)cc(-c3ccccc3)c2c1	116	94	.	108
O=C(COc1ccc2ccccc2c1Br)NCc1ccccc1	92	93	-3	.
COC(=O)C1=C(Sc2ccc(Cl)cc2)CSC1	100	82	-6	103
COc1ccc(N2CCN(C(=O)CN3C(=O)CSc4c3c(C)nn4-c3ccccc3)CC2)cc1	120	91	.	106
CCn1c(CN2CCCCC2)nc2cc(NC(=O)c3cc(OC)c(OC)c(OC)c3)ccc21	105	87	-14	106
CC(=O)S[C@@H]1CC2=CC(=O)CC[C@]2(C)[C@H]2CC[C@@]3(C)[C@@H](CC[C@@]34CCC(=O)O4)[C@H]12	103	95	-40&-14&-62	103
Cc1nn(-c2ccc(F)cc2)c(C)c1/C=C/C(=O)OCC(=O)Nc1sccc1C#N	76	97	-14	.
COC(=O)C1C(=O)c2c(n[nH]c2C)CC1(C)C (stereo unspecified)	89	106	-6	106
C/C(=N\c1nc2ccccc2n1C)c1cc(Cl)ccc1O	86	107	-17	49*
CC(C)OC(=O)c1cc2c(ccn2-c2ccc(F)cc2)n1CC(=O)Nc1ccc2c(c1)OCO2	100	88	-6	103
CC1(C)CC(=O)C2=C(C1)OC1=C(C(=O)CC(C)(C)C1)C2c1ccc(O)cc1O	.	.	4	98
O=C1CC(c2ccccc2Cl)Sc2ccccc2N1 (stereo unspecified)	99	96	-18&-21	106&96
O=C(c1cnn(-c2ccc(F)cc2)c1-n1cccc1)N1CCN(c2cccc(Cl)c2)CC1	106	92	.	100
CCN(C(=O)CSc1nc2ccccc2nc1Cc1ccc(F)cc1)c1cccc(C)c1	103	92	.	95
O=C(Cn1cc(SCc2ccc(Cl)cc2)c2ccccc21)N1CCOCC1	113	95	.	108
CCOc1cc(C(=O)Nc2ccc3oc(-c4ccncc4)nc3c2)cc(OCC)c1OCC	.	.	-6	102
O=C1CCCC(O)=C1C=Nc1cccc(C(F)(F)F)c1	107	90	-16	108
NC(=O)COC(=O)c1ccc2ccccc2n1	100	93	-54	.
Cc1cc(C)cc(OCC(=O)N(Cc2cccs2)c2ccc(Cl)cc2)c1	94	82	-27	107
(continued)
SMILES	Sa growth 42C	Sa growth 42C second temp	HCMV UL50-53 inh	GIV-Gai inh
O=C(Nc1ccc2c(c1)OCO2)c1ccncc1	92	89	.	96
c1ccc(C2=NNC(=NC3CC3)SC2)cc1	101	86	-26	.
COc1cc(C#N)ccc1OC(=O)CC1CC2CCC1C2 (stereo unspecified)	88	92	-12	.
CN(CC(=O)Nc1ccc(Br)cc1)S(=O)(=O)c1cccc2nsnc12	109	84	-96	107
Cn1cc(-c2nc(-c3ccncc3)no2)c(=O)c2cc(F)c(N3CCCCC3)cc21	.	.	-10	105
O=C(CS(=O)(=O)c1cccc2nsnc12)N1CCN(c2cccc(Cl)c2)CC1	112	82	.	107
Cc1cc(N(C)CCC#N)n2nc(C)c(-c3ccc(Cl)cc3)c2n1	80	84	1	104
Cc1cccc(Nc2nc3nonc3nc2N2CCOCC2)c1C	.	.	-45	101
Cc1nn(C2CCS(=O)(=O)C2)c(C)c1CN(C)c1ncnc2sccc12 (stereo unspecified)	99	92	-10	.
O=C(CC1(C(F)(F)F)OCCO1)Nc1ccc(S(=O)(=O)Nc2ncccn2)cc1	103	91	-14	.
O=C(Cn1c(C(F)(F)F)nc2ccccc21)NCCN1CCOCC1	106	98	-2	103
COc1ccc(N(CC(=O)Nc2ccc(Cl)cc2C)S(=O)(=O)c2ccccc2[N+](=O)[O-])c(OC)c1	.	.	3	103
NC(=O)c1cccn1-c1ncc(C(F)(F)F)cc1Cl	.	.	-19	101
CCOC(=O)Nc1ccc(S(N)(=O)=O)cc1	81	91	-4	.
COc1ccc(-c2nc(CN3C(=O)CSc4ncccc43)c(C)o2)cc1OC	100	95	1	108
O=C(Nc1ccc(F)cc1)N1CCN(C(=O)C2COc3ccccc3O2)CC1 (stereo unspecified)	101	90	-16	102
COc1ccc2cc(C(=O)NC(C)=O)c(=Nc3cccc(C(F)(F)F)c3)oc2c1	.	.	2	138
Cc1ccc(NC(=O)c2cc3cc4c5c(c3oc2=N)CCCN5CCC4)cc1	99	87	-23	-14*
COc1ccc(N2CCN(c3ncnc4sc(C(=O)Nc5ccc6c(c5)OCO6)c(C)c34)CC2)cc1	.	.	-19	105
CNC(=S)N1N=C(c2ccccc2)CC1c1cc2ccc(C)cc2nc1Cl (stereo unspecified)	80	86	.	106
ClC1(Cl)CC1CSC1=NCCN1 (stereo unspecified)	104	87	-10	102
NC(=O)COc1cccc2cccnc12	107	89	.	101
CC(=O)c1cc(-c2ccc(F)cc2)n(CCC(=O)NC2CCCCC2)c1C	89	92	.	97
O=C(NCCn1c(-c2ccccc2)nc2ccccc21)Nc1ccc(Br)cc1	.	.	-2	103
O=C(N=Nc1c(O)[nH]c2ccccc12)c1cccc(S(=O)(=O)N2CCCCC2)c1	103	97	-23	.

The final six records of the part before open the next one:
SMILES	Sa growth 42C	Sa growth 42C second temp	HCMV UL50-53 inh	GIV-Gai inh
CNC(=S)N1N=C(c2ccccc2)CC1c1cc2ccc(C)cc2nc1Cl (stereo unspecified)	80	86	.	106
ClC1(Cl)CC1CSC1=NCCN1 (stereo unspecified)	104	87	-10	102
NC(=O)COc1cccc2cccnc12	107	89	.	101
CC(=O)c1cc(-c2ccc(F)cc2)n(CCC(=O)NC2CCCCC2)c1C	89	92	.	97
O=C(NCCn1c(-c2ccccc2)nc2ccccc21)Nc1ccc(Br)cc1	.	.	-2	103
O=C(N=Nc1c(O)[nH]c2ccccc12)c1cccc(S(=O)(=O)N2CCCCC2)c1	103	97	-23	.
CCCCC(=O)Nc1ccccc1C(=O)OCc1cc(=O)n2nc(C3CCCCC3)sc2n1	79	88	.	102
CC(C(=O)NCc1ccc(Cl)cc1)C1Sc2ccccc2N(Cc2ccccc2F)C1=O (stereo unspecified)	.	.	-8	96
CCOC(=O)Cc1csc(NC(=O)C2C3C=CC(C3)C2C(=O)O)n1 (stereo unspecified)	103	96	-2	105
CNC(=S)Nc1ccc(S(N)(=O)=O)cc1	100	88	-2	108
O=C(NC1CCCCC1)c1cccc(Cn2cc(Cl)cn2)c1	126	76	.	104
O=C(COCc1cc(-c2ccc(F)cc2)on1)N1CCCC1	106	91	11	106
Cc1[nH]nc(-c2cccs2)c1C(=O)NN	110	83	-18	103
C=CCn1c(=O)c2ccccc2n2c(SCC(=O)NC3CCS(=O)(=O)C3)nnc12 (stereo unspecified)	70	94	-27	.

Screens from PubChem BioAssay.
